Source: PubChem BioAssay
Ab BasE inh: inhibitors of Acinetobacter baumannii siderophore enzyme BasE; purified BasE, fluorescence polarization binding displacement; inhibition, % (test concentration not listed); 84,000 compounds, 0.1% hits; AID 485350;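 active = both replicates above 25% with normal brightness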;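 also: 0% = negative plate control signal and 100% = positive plate control signal; stock transfer was 100 nL into about 30 µL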
KSHV LANA nucl: inhibitors of KSHV LANA binding to nucleosomes. FITC-LANA1-23 / chicken nucleosome fluorescence polarization; hits give low values. z-score (no concentration beside the values). 51,000 compounds, 0.3% hits. AID 720717;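 active = both repeat wells score below -2 in polarization z-score versus plate sample wells, excluding overly bright wells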;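 also: 100 nL library stock added to about 30 µL; numbers are from one replicate; some results filed as inactive read as strong as hits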
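test system = FITC-LANA peptide and chicken nucleosomes | amount = 240 nM purified chicken nucleosomes (480 nM peptide binding sites), final | reagent = 50 nM FITC-LANA1-23 probe | medium = TEN-BT buffer, pH 7.5 | doses = single compound addition by pin transfer, 100 nL per well | timing = 10–45 min, room temperature | detection = fluorescence polarization | repeats = duplicate plates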
Starred values were filed as active, the others as inactive; · = not tested or not shown. A portion of the library, so the mix of outcomes need not match the whole.

Results follow in this order: Ab BasE inh	KSHV LANA nucl
> O=C(CCc1ccccc1)N1CCCN(C(=O)CCc2ccccc2)CC1
  1.8	·
> COc1cccc(C2=NS(=O)(=O)N(C)C(C(=O)NCCN3CCOCC3)=C2)c1
  0.1	0.011
> COC(=O)c1[nH]c(CN2NS(=O)(=O)c3ccccc3C2=O)c(C(=O)OC)c1C
  7.0	·
> COc1cc(C(=O)Nc2ccccc2C(=O)NCc2cccnc2)cc(OC)c1OC
  1.7	-0.13
> Cc1ccc(N2CC(NC(=O)NCCCc3ccccc3)CC2=O)cc1 (configuration not stated)
  0.2	-1.5
> O=C1CN(C(=O)c2ccco2)C(c2ccccc2)c2cc(Br)ccc2N1 (configuration not stated)
  -0.9	-0.81
> Cc1ccc(-c2nnc(SCC(=O)NC(=O)CN3CCCC3=O)o2)cc1C
  -1.9	·
> O=C(CCn1c(=O)c2cccn2c2cccnc21)NC1CCCc2ccccc21 (configuration not stated)
  -2.0	-0.6
> COc1cccc(N(C)S(=O)(=O)c2ccc(C)c(C)c2)n1
  2.1	·
> COc1ccc(-n2c(C)cc(C(=O)COC(=O)c3ccc(O)cc3O)c2C)cc1
  -2.5	·
> Cc1c(NC(=O)CCCN2C(=O)/C(=C\c3ccco3)SC2=S)c(=O)n(-c2ccccc2)n1C
  -1.9	0.28
> Cc1ccccc1Nc1c(-c2ccc(N(C)C)cc2)nc2ccccn12
  -0.8	0.38
> CCOC(=O)C1CCN(S(=O)(=O)Cc2ccc(Cl)cc2)CC1
  0.4	1.6
> COc1ccc(C(=O)N2CC(=O)Nc3ccccc32)cc1
  -0.8	-0.85
> CC(=NCCN1CCOCC1)C1=C(O)c2ccccc2C1=O
  -0.3	0.032
> O=c1c2ccccc2ncn1CCOc1ccc(CO)cc1
  1.7	-0.65
> O=S1(=O)CCN2C=CSC2=N1
  0.4	·
> Cc1ccc(-n2c(SCC(=O)c3cn(CCC#N)c4ccccc34)nnc2-c2ccccc2)cc1C
  -2.2	·
> CC1CN(C(C)(C)C)CCC1(O)c1ccccc1 (configuration not stated)
  -1.6	1.8
> CCOC(=O)C1=C(C)NC(=O)C1CC(=O)O (configuration not stated)
  -1.0	-0.79
> Cc1ccc(NC(=O)c2c(-n3c(C)cc(C=NO)c3C)sc3c2CCCC3)cc1
  5.0	0.2
> Cn1c(=O)c2ccccc2n(CC(=O)Nc2ccc3c(c2)OCO3)c1=O
  0.7	-0.9
> C(=C\c1ccccc1)/CSc1nc2ccccc2o1
  1.2	0.037
> Cc1cc(Br)cc2c(N=NC(N)=O)c(O)n(C)c12
  0.9	0.073
> Cn1cccc1CN1CCS(=O)(=O)CC1
  ·	-0.55
> COc1ccc(NC(=O)Cn2cc(C#N)c3ccccc32)cc1
  -2.2	0.47
> COc1ccc(OC)c(S(=O)(=O)N2CCCC2C(=O)NC(C)c2ccccc2)c1 (configuration not stated)
  1.0	-0.89
> O=C(Nc1cccc(C(F)(F)F)c1)C1CC2CCCC(C1)C2=O (configuration not stated)
  0.2	·
> Cc1ccc(C(=O)Nn2cnc3scc(-c4cccs4)c3c2=O)c(O)c1
  -1.2	·
> NC(=O)NC(=O)CSC1CCCC1
  -5.0	·
> O=C(Nc1ccc2c(c1)OCO2)c1cccn(OCc2ccccc2F)c1=O
  1.2	-0.64
> Cc1cc(Nc2ccc(Cl)cc2)n(-c2ccccc2)n1
  2.9	·
> CCOc1ccccc1CN(CCc1ccc2c(c1)OCO2)Cc1ccccn1
  -2.5	0.59
> Cc1ccc2cc(C(N)=O)c(=N)oc2c1
  1.0	·
> COc1cc(/C=C(\C#N)C(N)=O)cc(CSc2nc3ccccc3s2)c1O
  0.1	2.4
> CSc1nnc(CNC(=O)c2ccc(C(C)C)cc2)n1C(C)C
  2.5	0.23
> O=C(Cc1csc(-c2ccsc2)n1)Nc1cccc(C(=O)NC2CC2)c1
  -2.6	·
> O=C(O)c1c(-n2cccc2)sc2c1CCSC2
  4.5	·
> COCC(C)n1cccc1 (configuration not stated)
  2.6	·
> O=C(OCc1ccccc1)N1CCOCCOCCOCC1
  0.2	-1.2
> O=C(NC(=O)c1c(Cl)cccc1Cl)Nc1nc2cc(F)ccc2s1
  1.0	·
> CC1(C)CC2CC(C)(CN2C(=O)c2cccs2)C1 (configuration not stated)
  2.1	-0.081
> COC(=O)C1CCN(c2c(N)n(Cc3ccccc3)c(=O)[nH]c2=O)CC1
  2.9	·
> CC1CN(CC(=O)Nc2ccc(C#N)cc2)CC(C)O1 (configuration not stated)
  0.6	·
> CN1CCN(c2nc3ccccc3nc2C(C#N)S(=O)(=O)c2ccccc2)CC1 (configuration not stated)
  ·	-0.19
> O=C(CN1CCN(c2ccc(S(=O)(=O)N3CCCC3)cn2)CC1)Nc1ccc(Cl)c(C(F)(F)F)c1
  3.4	·
> CCOc1ccc(NC(=O)CN(C)c2ccc(S(=O)(=O)N3CCN(C)CC3)cn2)cc1OCC
  -2.8	·
> Cc1csc(=O)n1CCN(C)CC(=O)Nc1ccc(Cl)c(C(F)(F)F)c1
  -1.2	·
> FC(F)(F)c1cccc(NN=C2C3CC4CC(C3)CC2C4)n1
  -0.6	-0.42
> O=C(CSc1nnc2sc3ccccc3n12)NC1CCCC1
  0.5	·
> COc1ccc(C(C)(O)C(CN2CCOCC2)c2ccccc2)cc1 (configuration not stated)
  0.7	-0.95
> C1CN(C(N2CCOCC2)N2CCOCC2)CCO1
  1.0	-0.76
> COc1ccccc1CNC(=O)c1cc2sc(Cl)cc2n1C
  1.4	-0.6
> Cc1nc2ccc(NC(=O)C3CCCCC3)cc2c(=O)n1Cc1ccccc1
  -0.1	0.3
> CC/C(=N\NC(=O)c1ccc(N)cc1)c1ccc(Cl)cc1
  2.7	·
> O=S(=O)(NC1c2ccccc2Oc2ccccc21)c1cccs1
  2.6	·
> Cc1cc2occ(CC(=O)OCc3cc(=O)n4c(n3)sc3ccccc34)c2cc1C
  -0.8	·
> O=C(/C=C/c1ccccc1)OCc1cncs1
  ·	0.3
> O=C(/C=C/c1ccco1)N(Cc1ccccc1)c1ccccc1
  2.4	·
> CC(=O)OCc1ccc(COC(C)=O)c(OC(C)=O)c1OC(C)=O
  0.5	0.22

Next entries:
Results follow in this order: Ab BasE inh	KSHV LANA nucl
> COC(=O)c1cc(S(=O)(=O)NCc2csc(-c3cccs3)n2)oc1C
  -0.5	0.18
> Cc1ccccc1Cn1cc(NC(=O)c2cc(C3CC3)on2)cn1
  0.2	-0.087
> O=S(=O)(NC1CCCCC1)c1cc(Cl)ccc1Cl
  1.4	0.15
> Cc1noc(C)c1CSc1nc(-c2ccccc2)cs1
  -1.2	·
> O=C(N/N=C/c1ccccc1O)C1SCCCS1
  -2.5	·
> O=C(CCCn1ncn2c(cc3occc32)c1=O)N1CCc2ccccc2C1
  -0.1	-0.65
> COCc1nc(OC)c2c(C)c(C(=O)O)sc2n1
  2.6	·
> CC(C)n1cnc2cc(NC(=O)c3ccco3)ccc21
  -0.7	0.74
> CC(C)(C)OC(=O)N1CCN(c2ccc(NC(=O)c3cc4ccccc4oc3=O)cc2)CC1
  0.3	-1.5
> O=C(CN1CCCc2ccccc21)N1CCCC1c1ccc2c(c1)OCCCO2 (configuration not stated)
  0.5	·
> Cc1cccn2c(=O)cc(CN3CCCC3c3ccc4c(c3)OCCO4)nc12 (configuration not stated)
  1.1	·
> CCOC(=O)c1cc(-c2ccc(S(=O)(=O)NCCN3CCC(C)CC3)s2)on1
  0.4	-0.48
> COc1cc(C(=O)OCCCn2c(=O)c3c(ncn3CCCN(C)C)n(C)c2=O)cc(OC)c1OC
  2.0	-0.5
> CC(=O)Nc1cccc(C(=O)N2CCN(Cc3ccc4c(c3)OCO4)CC2)c1
  -4.8	2.6
> COc1ccc(C(=O)Nc2ccccc2C(=O)NCc2ccco2)cc1
  0.1	0.33
> Cn1c(=O)c2c(nc(SCC(=O)NC(C)(C)C)n2C)n(C)c1=O
  1.1	·
> CN1CCCCC1CC(=O)O (configuration not stated)
  1.6	-0.41
> Cc1noc(C)c1CSc1ncccc1C(=O)N1CCc2ccccc21
  -4.5	·
> O=c1c2cc3c(cc2[nH]c(=S)n1C1CCN(Cc2ccccc2)CC1)OCO3
  0.6	-0.2
> COc1ccc(CCNC(=O)CN2C(=O)CCS(=O)c3ccccc32)cc1OC (configuration not stated)
  -0.4	-0.013
> O=C1C=C(O)c2cccc3cccc1c23
  26	-1.7
> CCC(C)NC(=O)c1c[nH]c2ccc(S(=O)(=O)N(CC)c3ccccc3)cc2c1=O (configuration not stated)
  0.1	-0.36
> Cc1cc(C)c2nc(N3CCN(CCO)CC3)cc(C)c2c1
  0.6	·
> O=C(OCC(=O)N1CCCC1=O)c1cccc(-n2cccc2)c1
  0.0	·
> NS(=O)(=O)c1ccc(CCNC(=O)c2cc(=O)c3ccccc3o2)cc1
  2.6	-0.42
> O=C(O)CCCOc1ccccc1F
  0.5	-0.61
> CC(C)=C1C2C=CC1c1ccccc12
  0.2	-0.24
> Cc1cc(F)ccc1S(=O)(=O)Nc1ccc(O)c(Sc2ncn[nH]2)c1
  -2.5	-0.49
> COc1cc(OC)c(NC(=O)NCCCN2CCC(N3CCCCC3)CC2)cc1Cl
  -0.7	0.41
> O=C(CSC1=NC=NC2N=CNC12)N1CCN(Cc2ccc3c(c2)OCO3)CC1 (configuration not stated)
  -0.8	0.47

4 entries from above, set out differently:
CCOc1ccc(NC(=O)CN(C)c2ccc(S(=O)(=O)N3CCN(C)CC3)cn2)cc1OCC
  Ab BasE inh = -2.8
  KSHV LANA nucl = ·
O=C1CN(C(=O)c2ccco2)C(c2ccccc2)c2cc(Br)ccc2N1 (configuration not stated)
  Ab BasE inh = -0.9
  KSHV LANA nucl = -0.81
Cc1cccn2c(=O)cc(CN3CCCC3c3ccc4c(c3)OCCO4)nc12 (configuration not stated)
  Ab BasE inh = 1.1
  KSHV LANA nucl = ·
CC(=O)Nc1cccc(C(=O)N2CCN(Cc3ccc4c(c3)OCO4)CC2)c1
  Ab BasE inh = -4.8
  KSHV LANA nucl = 2.6

3 compounds out of the list, arranged by length of the SMILES, ascending.
Results follow in this order: Ab BasE inh	KSHV LANA nucl
> Cn1c(=O)c2c(nc(SCC(=O)NC(C)(C)C)n2C)n(C)c1=O
  1.1	·
> NS(=O)(=O)c1ccc(CCNC(=O)c2cc(=O)c3ccccc3o2)cc1
  2.6	-0.42
> CN1CCN(c2nc3ccccc3nc2C(C#N)S(=O)(=O)c2ccccc2)CC1 (configuration not stated)
  ·	-0.19

More compounds.
Structure	Ab BasE inh	KSHV LANA nucl
Oc1ccc2oc3c(c2c1/C=N/n1cnnc1)CCCC3	1.4	-0.57
Cc1ccccc1N=c1scc(-c2ccc3c(c2)NC(=O)CO3)n1Cc1ccco1	1.2	·
CN(CCCC(=O)O)c1nc(-c2ccc(F)cc2)cs1	1.9	0.13
CCOC(=O)c1cnc(-c2cccs2)nc1Nc1ccc(Cl)cc1	0.6	·
COC(=O)c1ccc(C)c(NS(=O)(=O)c2ccc3c(c2)c(=O)sn3C)c1	2.2	-0.32
O=C(c1ccc(C23CC4CC(CC(C4)C2)C3)o1)N1CCOCC1	1.2	-0.14
Cn1c(=O)c(C#N)nn(-c2ccccc2)c1=O	2.8	·
COc1cc(S(=O)(=O)N2CCOCC2)ccc1NC(=O)COC(C)=O	0.4	·
COc1ccc(-c2ccc(SCC(=O)N3CCC(C)CC3)nn2)cc1	2.6	-1.4
O=C(/C=C/c1cccs1)Nc1ccccc1	2.6	-0.55
O=C1/C(=C\c2ccco2)N2CCC1CC2	2.7	0.78
Cc1ccccc1Nc1nc(N)nc(CN(C)S(=O)(=O)c2cccs2)n1	-1.9	·
O=C(CCc1nnc2n(Cc3ccccc3)c(=O)c3ccccc3n12)NCCCN1CCCCC1	-0.8	2.8
O=C(NC(=O)C12CC3CC(CC(C3)C1)C2)Nc1ccc(Cl)cc1	2.5	·
O=C(Nc1ccc(S(=O)(=O)N2CCCCC2)cc1)c1cc(=O)c2ccccc2o1	2.1	-0.1
CCOc1ccccc1NC(=O)N1CCCC(c2nnc(SC)n2C)C1 (configuration not stated)	-0.3	-0.67
CCOC(=O)c1c(-c2ccc(Br)cc2)csc1/N=C/C1C(=O)NC(=S)NC1=O	9.3	·
O=C(NC1CCN(Cc2ccccc2)CC1)c1cc2cc(Cl)ccc2[nH]1	·	-1.2
CCCn1c(=O)n(C)c(=O)c2c(SCC3CCCCO3)nc(CC(C)C)nc21 (configuration not stated)	0.7	·
N#Cc1ccccc1COc1ncnc2c1cnn2-c1ccccc1	-0.2	·
COC(=O)C(C)Sc1nnc(-c2ccc(OC)cc2)n1-c1ccccc1 (configuration not stated)	-0.6	·
O=C1Cc2ccccc2C(=O)N1Cc1ccccc1	·	-1.5
CC1(c2cccs2)CC(c2cccs2)=Nc2ccccc2N1 (configuration not stated)	-1.1	·
COc1ccc(C(=O)CSc2n[nH]c(=O)[nH]c2=O)cc1	2.1	·
CC(=Nc1c2c(nc3ccccc13)N(C)CC2)N(C)C	-2.6	·
CCCn1c2ccccc2c2cnn(CC(=O)N(CC)CC)c(=O)c21	-0.9	1
CCOC(Cc1nnc(SCC(=O)c2ccccc2)n1C)OCC	-0.5	0.58
CCn1c(O)c(C=NCCCCCc2nc(-c3ccc(C)cc3)no2)c(=O)n(CC)c1=S	0.6	·
COC(OC)c1ccc(C#N)c(SCc2ccc(Cl)cc2)n1	1.6	·
c1ccc(Cc2nn[nH]n2)cc1	·	-1.3
C=CCN(CC=C)S(=O)(=O)c1ccc(NC(=O)C2CCCCC2C(=O)O)cc1 (configuration not stated)	0.2	0.91
CC(Oc1ccc(Oc2ccccc2)cc1)C(=O)NC1CC1 (configuration not stated)	1.0	·
O=C(O)c1cccc(OCCN2CCCC2=O)c1	-0.5	-0.69
